# Bioassay records (PubChem)
# Vaccinia inh: Vaccinia orthopox stage-specific inhibition; 89,000 compounds, 0.01% hits; Vaccinia-infected cells, mCherry/Venus stage reporter fluorescence; stronger effect = lower value; some inactives read as strong as hits; activity change (mCherry), % (test concentration not listed);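 active = mCherry past -33% and 40 or more points under the early reporter, replicates agreeing; inconclusive = past -33% without that gap or agreement; tested in A549 cells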;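 also: scaled between vehicle wells and reference inhibitor wells; 23 nL library stock went into each well; one replicate is shown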
# Vaccinia inh Venus: recorded beside Vaccinia inh, whose call it bears; activity change (Venus), %; measured here: Venus reporter, other viral stage;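 negative = less Venus signal; first of two replicates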
# * hit, by the source's call; ? = inconclusive; nt = no result given; & = joins results of further samples. These rows are one share of the data; rates above refer to the full screens.
SMILES | Vaccinia inh | Vaccinia inh Venus
COc1ccc(NC(=O)Nc2ccc3c(c2)C(=O)N([C@@H](C)CO)C[C@H](C)[C@H](CN(C)S(=O)(=O)c2cccs2)OCCCC[C@H](C)O3)cc1 | 6 | 15
C[C@H]1CN([C@@H](C)CO)S(=O)(=O)c2ccc(C#Cc3ccccn3)cc2O[C@H]1CN(C)C | -3 | 2
C[C@@H]1CN([C@H](C)CO)C(=O)c2cc(NC(=O)C3CC3)ccc2O[C@@H]1CN(C)S(=O)(=O)c1ccc(F)cc1 | -4 | 1
C/C=C/c1ccc([C@H]2[C@H](CO)N3CCCCN(S(=O)(=O)c4cccs4)C[C@@H]23)cc1 | -24 | -26
C[C@@H]1CCCCO[C@H](CN(C)Cc2ccc3c(c2)OCO3)[C@H](C)CN([C@H](C)CO)C(=O)c2cc(NC(=O)Nc3ccc(C(F)(F)F)cc3)ccc2O1 | -17 | -18
COc1ccc(S(=O)(=O)Nc2ccc3c(c2)C(=O)N([C@@H](C)CO)C[C@H](C)[C@@H](CN(C)Cc2ccc4c(c2)OCO4)O3)cc1 | 19 | 17
CCCC(=O)Nc1ccc2c(c1)OC[C@H](C)N(C(=O)c1ccccn1)C[C@@H](C)[C@@H](OC)CN(C)C2=O | 9 | 7
C[C@H]1CN([C@@H](C)CO)C(=O)Cc2cc(NC(=O)Nc3ccccc3)ccc2O[C@@H]1CN(C)Cc1ccc(C(F)(F)F)cc1 | -4 | -5
O=C(Nc1ccc2c(c1)[C@@H]1C[C@H](CC(=O)N3CCCCC3)O[C@@H](CO)[C@@H]1O2)C1CCC1 | -8 | -12
Cc1ccc(-c2ccc3c(c2)O[C@H](CN(C)Cc2ccc(C(=O)O)cc2)[C@H](C)CN([C@H](C)CO)S3(=O)=O)cc1 | 6 | 5
Cc1ccc(-c2ccc3c(c2)O[C@@H](CN(C)C(=O)Nc2ccc(F)cc2)[C@H](C)CN([C@@H](C)CO)S3(=O)=O)cc1 | ? | nt
CO[C@H]1CN(C)C(=O)c2ccc(NC(=O)c3ccc(F)cc3)cc2OC[C@@H](C)N(C)C[C@@H]1C | 5 | 6
C[C@@H]1CN([C@H](C)CO)C(=O)c2cc(NC(=O)Nc3cccc4ccccc34)ccc2O[C@H]1CN(C)S(=O)(=O)c1cn(C)cn1 | 5 | -1
C[C@@H]1CN([C@H](C)CO)C(=O)c2cccc(NS(=O)(=O)c3ccccc3)c2O[C@H]1CN(C)Cc1ccc(Cl)c(Cl)c1 | 2 | -2
CN(C)CC(=O)N[C@H]1CC[C@H](CCn2cc(CN(C)C)nn2)O[C@@H]1CO | 5 | 1
C[C@@H]1CN([C@H](C)CO)S(=O)(=O)c2ccc(-c3cccc(C#N)c3)cc2O[C@H]1CN(C)Cc1ccccn1 | -21 | -7
C[C@@H]1CN([C@@H](C)CO)S(=O)(=O)c2ccc(-c3ccc(C#N)cc3)cc2O[C@@H]1CN(C)C(=O)C1CC1 | -16 | -19
C[C@H]1CN([C@@H](C)CO)C(=O)Cc2cc(NC(=O)CCN3CCOCC3)ccc2O[C@H]1CN(C)CC1CCCCC1 | 4 | 20
C[C@H](CO)N1C[C@H](C)[C@H](CN(C)Cc2ccncc2)Oc2ccc(NC(=O)Nc3ccc4c(c3)OCO4)cc2CC1=O | 7 | 7
O=C1CN(S(=O)(=O)c2cccc(F)c2)C[C@H]2[C@@H](c3ccc(C4=CCCC4)cc3)[C@H](CO)N12 | 5 | 2
O=C(C[C@H]1C=C[C@@H](NC(=O)C2CCC2)[C@H](CO)O1)NCc1ccccc1Cl | 3 | -6
CO[C@@H]1CN(C)C(=O)c2ccc(NC(C)=O)cc2OC[C@@H](C)N(C(=O)C2CCCCC2)C[C@H]1C | -22 | -13
COc1cccc(CN2CC3(CN(C)C3)c3c(n(C)c4cc(OC)ccc34)[C@H]2CO)c1 | -8 | -4
COc1ccc(S(=O)(=O)N[C@@H]2CC[C@H](CC(=O)N3CCc4ccccc4C3)O[C@@H]2CO)cc1 | -23 | -19
C[C@H]1CN([C@@H](C)CO)C(=O)c2cc(NC(=O)CCN3CCOCC3)ccc2O[C@H]1CN(C)S(=O)(=O)c1ccc(Cl)cc1 | 7 | 6
O=C(C[C@H]1C[C@H]2c3cc(NC(=O)C4CCOCC4)ccc3O[C@H]2[C@@H](CO)O1)NCc1ccc2c(c1)OCO2 | 0 | -5
O=C(Cc1ccccc1)N[C@@H]1CC[C@@H](CC(=O)N2CCOCC2)O[C@H]1CO | 2 | 0
O=S(=O)(c1ccc(F)cc1)N1CC[C@H]2[C@H](CO)Nc3ccc(Br)cc3[C@H]21 | -22 | -24
O=S(=O)(c1ccc(F)cc1)N1[C@@H]2CNC[C@H]1C2c1ccc(-c2cccnc2)cc1 (stereo partly drawn) | -33&23 | -27&13
C[C@@H]1CN([C@@H](C)CO)C(=O)c2cc(NC(=O)CCC(F)(F)F)ccc2O[C@@H]1CN(C)Cc1ccncc1 | 0 | -1
COCC#Cc1cnc2c(c1)C(=O)N([C@H](C)CO)C[C@H](C)[C@@H](CN(C)C(=O)Nc1ccc(OC)cc1)O2 | 10 | 0
COc1ccc(C#Cc2ccc([C@@H]3[C@H]4CN(C(=O)Cc5ccncc5)CCCCN4[C@H]3CO)cc2)cc1 | -10 | 11
O=C(NCc1ccc(F)cc1)[C@@H]1[C@@H](CO)[C@@H]2Cn3c(cccc3=O)[C@H]1N2C(=O)Cc1ccccn1 | 7 | 5
O=C(Nc1ccc2c(c1)[C@@H]1C[C@@H](CC(=O)N3CCOCC3)O[C@@H](CO)[C@@H]1O2)C1CCOCC1 | 4 | 3
O=C(C1CCC1)N1CC(=O)N2[C@@H](CO)[C@@H](c3ccc(C4=CCCCC4)cc3)[C@@H]2C1 | -6 | -7
C[C@H](CO)N1C[C@H](C)[C@@H](CN(C)S(C)(=O)=O)OCCCC[C@H](C)Oc2ccc(NS(=O)(=O)c3ccccc3)cc2C1=O | 18 | 6
C[C@H]1CN([C@@H](C)CO)C(=O)c2cc(Br)cnc2O[C@H]1CN(C)Cc1ccccc1C(=O)O | 11 | 5
Cc1ccc(S(=O)(=O)Nc2ccc3c(c2)C(=O)N([C@@H](C)CO)C[C@@H](C)[C@H](CN(C)CC2CCCCC2)O3)cc1 | -6 | -3
CN1C(=O)c2cc(NC(=O)C3CCOCC3)ccc2OC[C@H]2O[C@@H](CC(=O)NCc3ccc4c(c3)OCO4)CC[C@@H]21 | -2 | 4
C[C@@H]1CCCCO[C@@H](CN(C)S(=O)(=O)c2cn(C)cn2)[C@@H](C)CN([C@H](C)CO)C(=O)c2cc(N(C)C)ccc2O1 | 6&6 | 4&-2

# Compound profiles, as listed above.
# C[C@@H]1CN([C@H](C)CO)C(=O)c2cc(NC(=O)Nc3cccc4ccccc34)ccc2O[C@H]1CN(C)S(=O)(=O)c1cn(C)cn1 across the screens: Vaccinia inh: 5; Vaccinia inh Venus: -1
# CO[C@@H]1CN(C)C(=O)c2ccc(NC(C)=O)cc2OC[C@@H](C)N(C(=O)C2CCCCC2)C[C@H]1C across the screens: Vaccinia inh: -22; Vaccinia inh Venus: -13

# (next part)
SMILES | Vaccinia inh | Vaccinia inh Venus
C[C@@H]1CN([C@H](C)CO)C(=O)c2cc(NC(=O)Cc3ccccc3)ccc2O[C@@H](C)CCCCO[C@H]1CN(C)C(=O)Nc1cccc2ccccc12 | 20 | 17
O=C(NCC[C@@H]1CC[C@H](NC(=O)c2cnccn2)[C@H](CO)O1)Nc1ccc(F)cc1 | 4 | 7
COc1ccc(NC(=O)N(C)C[C@H]2Oc3c(NC(=O)Nc4ccc5c(c4)OCO5)cccc3C(=O)N([C@@H](C)CO)C[C@H]2C)cc1 | -14 | -5
O=C(C[C@@H]1CC[C@@H](NC(=O)c2cccnc2)[C@@H](CO)O1)NCc1ccncn1 | 4 | 1
Cc1noc(C)c1NC(=O)N(C)C[C@H]1Oc2ccc(NC(=O)C3CCCCC3)cc2C(=O)N([C@@H](C)CO)C[C@@H]1C | 5 | 14
COc1ccc(S(=O)(=O)N(C)C[C@@H]2Oc3ccc(NC(=O)Nc4ccc(F)cc4)cc3C(=O)N([C@H](C)CO)C[C@H]2C)cc1 | -13 | -7
O=C(c1ccc(F)cc1)N1CC(=O)N2[C@@H](CO)[C@@H](c3ccc(C#Cc4ccc(F)cc4)cc3)[C@@H]2C1 | ? | nt
CN1c2ccc(-c3cccc(F)c3)cc2[C@@H]2[C@@H](CCN2C(=O)c2ccc3c(c2)OCO3)[C@@H]1CO | ? | nt
O=C(C[C@H]1CC[C@H](NC(=O)c2cccc(F)c2)[C@H](CO)O1)Nc1nccs1 | 16 | 22
CC(C)CC#Cc1ccc2c(c1)O[C@H](CN(C)C(=O)CC1CC1)[C@H](C)CN([C@H](C)CO)S2(=O)=O | ? | nt
C[C@@H]1CCCCO[C@H](CN(C)S(C)(=O)=O)[C@@H](C)CN([C@H](C)CO)C(=O)c2cc(NC(=O)c3ccccc3)ccc2O1 | -3 | 2
C[C@H](NC(=O)C[C@H]1C=C[C@@H](NC(=O)c2cccnc2)[C@@H](CO)O1)c1ccccc1 | 8 | 11
CN(C)C(=O)C[C@H]1CC[C@H]2[C@@H](COC[C@@H](O)CN2CC2CCCCC2)O1 | 9 | 6
COc1cccc(NC(=O)Nc2ccc3c(c2)C(=O)N(C)C[C@@H](OC)[C@@H](C)CN(CC2CC2)[C@@H](C)CO3)c1 | -16 | -4
COC(=O)[C@@H]1[C@@H](CO)[C@@H]2Cn3c(ccc(-c4ccc(F)cc4)c3=O)[C@@H]2N1C(=O)C1CC1 | 23 | 8
C/C=C/c1ccc([C@H]2[C@@H](CO)N(C(=O)C3CCCC3)[C@H]2CNCCC)cc1 | -19 | -2
COc1cccc(-c2ccc3n(c2=O)C[C@H]2[C@H](CO)[C@@H](C(=O)NC4CCCC4)N[C@@H]32)c1 | 2 | 4
CCCNC(=O)N(C)C[C@@H]1Oc2cc(C#CCN(C)C)ccc2S(=O)(=O)N([C@H](C)CO)C[C@H]1C | 13 | 8
C[C@@H]1CN([C@H](C)CO)C(=O)c2cccc(NS(=O)(=O)c3ccccc3)c2O[C@H]1CN(C)C(=O)Nc1cccc2ccccc12 | 24 | 15
C[C@@H]1CN([C@H](C)CO)C(=O)CCCn2nncc2CO[C@H]1CN(C)C(=O)C1CC1 | 7 | 5
Cc1cccc(S(=O)(=O)N(C)C[C@H]2OCc3ccccc3-c3c(n(C)c4ccccc34)C(=O)N([C@H](C)CO)C[C@@H]2C)c1 | ? | nt
C[C@@H]1CN([C@@H](C)CO)C(=O)c2cc(-c3cccc(C(=O)N(C)C)c3)cnc2O[C@H]1CN(C)C | 18 | 17
COCC(=O)N1CC2(C1)[C@H](c1ccccc1)[C@@H](CO)N2C(=O)c1ccccc1 | 2 | 12
O=C(c1ccc2c(c1)OCO2)N1CCCCN2[C@@H](CO)[C@@H](c3ccc(-c4ccccc4)cc3)[C@@H]2C1 | ? | nt
COc1ccc(S(=O)(=O)Nc2ccc3c(c2)CC(=O)N([C@H](C)CO)C[C@@H](C)[C@@H](CN(C)C(=O)Nc2ccccc2)O3)cc1 | 17 | 17
C[C@@H]1CCCCO[C@H](CN(C)Cc2ccc(Cl)c(Cl)c2)[C@@H](C)CN([C@@H](C)CO)C(=O)c2cc(NC(=O)Nc3ccccc3)ccc2O1 | ? | nt
CC(=O)N1CCCCN2[C@@H](CO)[C@@H](c3ccc(-c4ccc(C)cc4)cc3)[C@@H]2C1 | -11 | -15
O=C(Nc1cccc(F)c1)N1[C@@H]2CNC[C@H]1C2c1ccc(-c2cccc(F)c2)cc1 (stereo partly drawn) | -12&10 | -6&19
CO[C@H]1CN(C)C(=O)c2ccc(NC(=O)c3cc(C)on3)cc2OC[C@H](C)NC[C@@H]1C | -11 | 6
C[C@@H]1CCCCO[C@@H](CN(C)Cc2ccc(Cl)c(Cl)c2)[C@H](C)CN([C@H](C)CO)C(=O)c2cc(NS(C)(=O)=O)ccc2O1 | ? | nt
Cc1ccc(S(=O)(=O)N(C)C[C@@H]2Oc3c(NC(=O)C4CCOCC4)cccc3C(=O)N([C@H](C)CO)C[C@@H]2C)cc1 | 8 | 2
O=C(NCC[C@H]1CC[C@@H](NS(=O)(=O)c2ccccc2)[C@H](CO)O1)c1ccccc1F | 0 | -4
C[C@H]1CN([C@@H](C)CO)C(=O)c2cc(-c3cccnc3)cnc2O[C@@H]1CN(C)C(=O)Nc1ccc(F)cc1 | 44 | 14
C[C@H](CO)N1C[C@H](C)[C@H](CN(C)C(=O)c2cccc(F)c2)Oc2ncc(-c3cccc(F)c3)cc2C1=O | 15 | 23
C[C@H](CO)N1C[C@H](C)[C@H](CN(C)CC2CCCCC2)Oc2ccc(NC(=O)C3CCCCC3)cc2CC1=O | -10 | -13
COc1ccc(NC(=O)N(C)C[C@H]2OCCCC[C@@H](C)Oc3ccc(NC(=O)Nc4ccc(F)cc4)cc3C(=O)N([C@H](C)CO)C[C@@H]2C)cc1 | 3 | 6
C[C@@H]1CN([C@H](C)CO)S(=O)(=O)c2ccc(-c3ccccc3)cc2O[C@@H]1CN(C)CC1CC1 | -4 | -17
C[C@H](NC(=O)C[C@@H]1CC[C@@H](NS(=O)(=O)c2cccc(F)c2)[C@H](CO)O1)c1ccccc1 | 22 | 21
COc1cccc(-c2ccc3c(c2)[C@H]2[C@H](CCN2S(=O)(=O)c2ccccc2C)[C@H](CO)N3)c1 | -34 | -22
O=C(C[C@H]1C=C[C@H](NC(=O)c2cccc(F)c2)[C@H](CO)O1)NCc1ccccc1 | -8 | -4

# Structures above that contain a thiophene ring, fused or not (two):
SMILES | Vaccinia inh | Vaccinia inh Venus
COc1ccc(NC(=O)Nc2ccc3c(c2)C(=O)N([C@@H](C)CO)C[C@H](C)[C@H](CN(C)S(=O)(=O)c2cccs2)OCCCC[C@H](C)O3)cc1 | 6 | 15
C/C=C/c1ccc([C@H]2[C@H](CO)N3CCCCN(S(=O)(=O)c4cccs4)C[C@@H]23)cc1 | -24 | -26
